# VDR inh: Inhibitors of the vitamin D receptor (VDR): qHTS; Vitamin D3 receptor (Homo sapiens), P11473; VDR-SRC2-3 peptide fluorescence polarization, 2 h; Potency, µM, inactives show max response, negative = inhibition, usual class: inhibitors; actives 0.93% (n = 400,000); active = well fitted inhibition curve with a large enough effect; inconclusive = small, poorly fitted or top-dose-only effect, or another doubt; inactive = no such curve, though single readings can be large or run the other way; note: series mostly up to about 120 µM
# Target sequence (P11473 whole entry, looked up): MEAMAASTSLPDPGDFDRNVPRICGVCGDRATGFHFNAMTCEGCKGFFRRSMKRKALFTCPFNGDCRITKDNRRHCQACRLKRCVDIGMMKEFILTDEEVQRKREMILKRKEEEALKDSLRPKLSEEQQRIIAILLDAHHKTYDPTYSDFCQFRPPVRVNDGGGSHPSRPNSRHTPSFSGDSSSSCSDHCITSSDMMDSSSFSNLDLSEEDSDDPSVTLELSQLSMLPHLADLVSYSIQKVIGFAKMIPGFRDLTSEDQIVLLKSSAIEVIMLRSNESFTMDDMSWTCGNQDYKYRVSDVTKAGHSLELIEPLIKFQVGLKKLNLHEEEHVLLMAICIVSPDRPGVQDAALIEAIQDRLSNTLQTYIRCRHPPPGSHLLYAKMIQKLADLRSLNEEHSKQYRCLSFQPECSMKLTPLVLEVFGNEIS
#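 FP read-out; VDR + SRC2-3 coactivator peptide; 23 nl compound by pintool; 2 h RT incubation; reagents held at 4 deg C, protected from light.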
# Active calls of the source: *; ? = inconclusive; & = joins results of further samples. % is set by controls: 0 for no effect and ±100 for the full control effect; potency is the fitted concentration of half-maximal effect. An excerpt; rates above refer to the full screens.
SMILES,VDR inh
COc1ccc(Cn2ccc3nc(C)c(C(=O)Nc4cc(OC)c(OC)c(OC)c4)cc3c2=O)cc1,-2%
CC(C)(C)c1nc(CN2CCOCC2)cc(CN2CCOCC2)c1O,-9%
COC(=O)c1c(C)[nH]c(C(=O)C(C)OC(=O)c2ccco2)c1C (centres undefined),-3%
CCC(C)c1ccccc1NC(=O)CN(C)CCOc1ccc(Cl)cc1 (centres undefined),1%
O=C(OCC(=O)N1CCCC1=O)c1ccc(O)cc1O,6%
Cc1ccc(CNC(=O)C2(C(F)(F)F)C/C(=C\CCO)CCCO2)o1 (centres undefined),-15%
Cc1cccc(C)c1NC(=O)CN1CCN(C(=O)CN2C(=O)NC3(CCCCC3C)C2=O)CC1 (centres undefined),30%
CCCCN(C)C(=O)c1cc2cc3ccc(OC)cc3nc2s1,29%
Cc1nnc(NC(=O)c2ccc(S(=O)(=O)N(C)Cc3ccccc3)cc2)o1,-7%
CC(=O)Nc1ccc(NC(=O)COC(=O)CCCc2c[nH]c3ccccc23)cc1,?
O=C(NCc1ccccc1Cl)c1ccc2c(c1)OCO2,2%
COc1cccc(C(=O)C2CCCN(C(=O)c3ccccc3Cl)C2)c1 (centres undefined),-1%
CC1CCN(S(=O)(=O)c2ccc(C(=O)Nc3ncccc3O)cc2)CC1,-11%
Cc1ccc(-n2ccnc2SCC(=O)O)c(C)c1,8%
c1ccc(CNc2nc(-c3ccccn3)nc3ccccc23)cc1,4%
BrC(=C\c1ccccc1)/C=N/N1CCN(c2ccccc2)CC1,79µM*
CCNC(=O)CN(c1ccc(Br)c(C)c1)S(C)(=O)=O,1%
CCOC(=O)CSc1nnc(CNC(=O)c2ccc(S(=O)(=O)N3CCOCC3)cc2)n1C,11%
CC(c1ccccc1)N1CC(C(=O)N2CCN(c3ccc(F)cc3)CC2)CC1=O (centres undefined),10%
C/[N+]([O-])=C\c1coc2ccccc2c1=O,5%
COc1ccc(S(=O)(=O)N2CCC(c3nc4ccccc4s3)CC2)cc1OC,0%
NNC(=O)[C@@H]1C[C@@H]1c1ccccc1,-7%
Cc1ccc2cc(/C=C3\N=C(c4ccccc4)OC3=O)c(N3CCOCC3)nc2c1,-8%
COC(=O)c1cc(C(=O)OC)[nH]n1,26%
COc1ccc(/C=C(/NC(=O)c2ccccc2)c2nc3ccccc3[nH]2)cc1OC,-25%
Cc1ccc(-n2c(C)nc3c(cnn3-c3ccccc3C)c2=O)cc1F,-6%
Cc1ccc(CSC2=Nc3ccccc3C3=NC(CC(=O)NC4CCCCC4)C(=O)N23)cc1 (centres undefined),14%
COc1ccccc1/C=C/C(=O)OCCN1CCOCC1,9%
Cn1c(=O)c2c(nc(NCCc3ccccc3)n2Cc2cccc(Br)c2)n(C)c1=O,-5%
COc1ccc(C(C(=O)NC(C)(C)C)N(C(=O)CCC(=O)Nc2cc(C)on2)c2cc(C)cc(C)c2)cc1 (centres undefined),-18%
O=c1c2ccccc2[nH]c(=S)n1CC1CCCO1 (centres undefined),-12%
OCCCNCc1ccc(N(c2ccccc2)c2ccccc2)cc1,-9%
CNC(=O)c1c(O)c2cccc3c2n(c1=O)CCC3,-13%
c1ccc(N2CCN(c3nc(NCc4ccco4)c4ccccc4n3)CC2)cc1,7%
CC(=O)N(C(C)=O)N1C(=O)C2C3c4ccccc4C(c4ccccc43)C2C1=O (centres undefined),35µM*
Cc1cccc(N2C(=O)CC(SC(N)=Nc3ccccc3)C2=O)c1 (centres undefined),-4%
COc1ccc(NS(=O)(=O)c2cccc(C(=O)NNC(=O)c3cccc(NC(C)=O)c3)c2)cc1,-7%
Fc1ccc(C2c3cccn3CCN2C(=S)Nc2cccc(Br)c2)cc1 (centres undefined),-12%
CN(C)C(=O)CCc1ccc2c3c([nH]c2c1)[C@]1(CCc2ccccc2)[C@@H](C(=O)N2CCCCC2)C[C@H](CC(=O)NCc2ccco2)C(=O)N1CC3,-11%
Cc1ccc(CS(=O)(=O)c2nsc(C)c2C#N)cc1,-8%
COc1ccc(Oc2c(C)nc(SCC(=O)c3ccc(Cl)cc3)[nH]c2=O)cc1,-2%
O=C(c1cccs1)N1CCCc2cc(NS(=O)(=O)c3ccc(F)cc3F)ccc21,-6%
Cc1oc2cc3oc(=O)c(CC(=O)O)c(C)c3cc2c1-c1ccccc1,-4%
CCC1CCCCN1C(=O)CSc1nc(N)c(NC(=O)c2ccco2)c(=O)[nH]1 (centres undefined),-3%
Cc1c(C)c(C)c2[nH]c(-c3ccc4c(c3)OCO4)nc2c1C,12%
O=C(NCc1ccc(F)cc1)C1CCN(C(=O)NCc2ccccc2)CC1,-9%
O=C1CSC(c2ccccc2)N1Cc1ccccn1 (centres undefined),7%
CCCCCC(=O)Nc1ccc(-c2cn3cccnc3n2)cc1,-1%
COc1ccccc1NC(=O)CN(Cc1ccco1)C(=O)c1ccc(-n2nc(C)cc2C)cc1,-1%
CC/C(=N\NC(=O)c1cc(C)nc2ccccc12)c1ccc(C)s1,-14%
Cc1cccc(-n2nnnc2SCC(=O)c2cc(C)n(CC3CCCO3)c2C)c1 (centres undefined),3%
Cc1ccccc1C(=O)Oc1c(Sc2ccccc2)c(C)nn1C(C)(C)C,-6%
CCc1nc2nc(C)cc(Nc3ccc(F)c(Cl)c3)n2n1,-6%
CCC(C)NC(=O)Cn1c(=O)n(CCCC(=O)NCc2ccc(C)cc2)c(=O)c2ccccc21 (centres undefined),-16%
CCCC(c1nnnn1Cc1ccc(F)cc1)N1CCN(CC)CC1 (centres undefined),-8%
O=C(CN1CCN(S(=O)(=O)c2ccc(F)c(Cl)c2)CC1)N1CCc2ccccc2C1,-6%
COC(=O)CCSCC(=O)Nc1cc(C)on1,10%
c1csc(-c2ccc3ccccc3n2)c1,5%
Cc1ccc(C)c(CNS(=O)(=O)c2ccc3c(c2)C(C)(C)C(=O)N3C)c1,14%&8%
Cc1ccccc1OCC(=O)Nc1ccc2c(c1)C(=O)N(CCC(=O)O)C2=O,-2%
# Other structures
SMILES,VDR inh
CC(Oc1cccc2cccnc12)C(=O)N/N=C/c1ccc2c(c1)OCO2 (centres undefined),4%
O=C1C(CN2CCCC2)CCCC1CN1CCCC1 (centres undefined),?
CC(CN1CCCCC1)OC(=O)c1ccc2c(c1)OCCO2 (centres undefined),24%
CCN1CCSc2ccc(C(=O)NCc3cccc(Br)c3)cc21,-17%&-13%
CC(C)c1ccc(NC(=O)CSc2nc(=O)[nH]c3c2CCCC3)cc1,?
O=S(=O)(O)c1nc2ccccc2n1Cc1ccc(Cl)cc1Cl,0%
CCOC(=O)c1c(C)nc(-c2ccccc2)nc1NC(C)=O,12%
Cc1cc(C)nc(Oc2ccc([N+](=O)[O-])cc2)n1,-6%
O=C(NNC(=O)c1cc2cc3ccccc3nc2s1)c1cccc(C(F)(F)F)c1,-14%
NS(=O)(=O)c1ccc(NC(=O)C2Cc3ccccc3N2C(=O)c2ccccc2)cc1 (centres undefined),8%
C=CCNc1nc(C(=O)OCC(=O)Nc2ccccc2C(F)(F)F)cs1,6%
COc1cccc(OCC(O)CNC(=O)c2oc3ccc(C)cc3c2C)c1 (centres undefined),-2%
Cc1ccc(S(=O)(=O)C(CCC(=O)N2CCOCC2)S(=O)(=O)c2ccc(C)cc2)cc1,3%
Nc1[nH]ncc1C(=O)Nc1cccc(C(F)(F)F)c1,-14%
Cc1ccc(NCN2C(=O)c3ccccc3C2=O)c(C)c1,1%
O=C(C1Cc2ccccc2CN1S(=O)(=O)c1ccccc1[N+](=O)[O-])N1CCOCC1 (centres undefined),-11%
Cc1ccc(NC(=O)COc2coc(CN3c4ccccc4CC3C)cc2=O)c(C)c1 (centres undefined),-6%
O=C(C(=Cc1ccccc1)CN1CCCCC1)c1ccccc1,?
O=C(COC(=O)CCc1c[nH]c2ccccc12)Nc1cc([N+](=O)[O-])ccc1Cl,-2%
O=C(Cn1nc(-c2ccc(F)cc2)ccc1=O)Nc1ccc2c(c1)OCCO2,-9%
CCn1c(=O)c2ccccc2n(Cc2cccc(C)c2)c1=O,0%
O=c1[nH]c(NCc2ccccc2)nc2c1CCC2,-10%
COc1ccc(S(=O)(=O)N(C)C[C@H]2Oc3ccc(NC(=O)C4CCCCC4)cc3C(=O)N([C@H](C)CO)C[C@@H]2C)cc1,-4%
O=C(c1ccco1)N1CCC[C@@]2(CCN(Cc3nccs3)C2)C1,?
CN(CC(=O)Nc1ccc(Cl)cc1)C(=O)C1=COCCO1,-8%
CC(=O)O[C@@H]1[C@H]2[C@@H](C[C@@H](C)[C@@H]3CCC(=O)[C@@]13C)OC(=O)[C@@H]2C,-9%
CC(=O)Nc1ccc(S(=O)(=O)NCc2cn3ccsc3n2)cc1,-8%
CCOCCc1c(O)nc(SCC(=O)N2CCOCC2)[nH]c1=O,21%
O=C1NC(=O)C(c2ccc(F)cc2)N1 (centres undefined),4%
O=C1NC(=O)C(=O)N1,-8%
O=C(NCCC1CCCC1)c1cccs1,-19%
Cc1ccc(CNC(=O)CC2Sc3ccccc3NC2=O)cc1 (centres undefined),6%
COc1ccc(N2CC(NC(=O)/C=C\c3ccc4c(c3)OCO4)CC2=O)cc1OC (centres undefined),11%
COc1cccc(C(=O)SC2=NCCS2)c1,-14%
CCCn1nnnc1-c1ccc(Cl)cc1,-1%
Cc1cc(C)c(NC(=O)CCCN2C(=O)COc3ccc(C)cc32)c(C)c1,1%
Cc1ccc(S(=O)(=O)NC(CC(=O)n2nc(C)cc2C)c2ccccc2)cc1 (centres undefined),-6%
CC(C)=NOC(=O)c1c(C)noc1-c1snnc1C,20%
COc1ccccc1N(CC(=O)NCCSc1ccccc1)S(C)(=O)=O,-5%
CC1CCN(C(=O)NC(=O)c2ccc(Cl)cc2)CC1,-1%
O=C(NCCS(=O)(=O)N1CCN(c2ccccc2F)CC1)C1CC(=O)N(c2ccccc2)C1 (centres undefined),6%&14%
CSc1ncccc1C(=O)OCC(=O)N1CC(=O)Nc2ccccc21,-13%
CC(C)N(C(=O)CSc1nc(Cc2ccccc2)nc2ccccc12)C(C)C,-19%
CC1(C)c2[nH]c3ccccc3c2C[C@@H]2C(=O)N(Cc3ccccc3)C(=O)N21,-9%
COc1ccc(Cl)cc1NC(=O)CN(C)C(=O)CNC(=O)C12CC3CC(CC(C3)C1)C2,17%
COc1ccc(C2/C(=C(/O)c3ccc4c(c3)CC(C)O4)C(=O)C(=O)N2CCCN2CCOCC2)cc1OC (centres undefined),-20%
CSCC[C@H](NC(=O)[C@H](CC(C)C)NC(=O)[C@H](CO)NC(=O)[C@H](CCC(=O)O)NC(=O)[C@H](CC(C)C)NC(=O)[C@H](Cc1ccc(O)cc1)NC(=O)[C@H](CCCCN)NC(=O)[C@H](CCCCN)NC(=O)[C@H](C)NC(=O)[C@H](CO)NC(=O)[C@H](CC(C)C)NC(=O)[C@H](CCC(N)=O)NC(=O)CNC(=O)[C@H](CC(C)C)NC(=O)[C@H](CC(C)C)NC(=O)[C@H](CCCCN)NC(=O)[C@H](CO)NC(=O)[C@H](Cc1ccccc1)NC(=O)[C@H](CC(=O)O)NC(=O)[C@H](CO)NC(=O)[C@@H](NC(=O)[C@H](Cc1ccccc1)NC(=O)[C@@H](NC(=O)CNC(=O)[C@H](CC(=O)O)NC(=O)[C@H](C)NC(=O)[C@@H](N)Cc1cnc[nH]1)C(C)C)[C@@H](C)O)C(N)=O,-5%
COc1cccc(Cn2c(=O)c(CCc3ccccc3)nc3cnc(N4CCOCC4)nc32)c1,-4%
CCOc1cccc(CN2CCCC(N3CCc4ccccc4C3)C2)c1O (centres undefined),5%
Cc1cc(C)c(NC(=O)CSc2nc3ncc(Br)cc3[nH]2)c(C)c1,-8%
COc1ccc(N/C=C(\C(C)=O)c2ccc(OC)c(OC)c2)cc1OC,5%
O=C(CN(C(=O)CSc1nc2ccccc2o1)c1ccccc1)NC1CCCCC1,3%
COc1ccc(C(C)C)cc1S(=O)(=O)Nc1ccncc1,-8%
CCC(=O)N1CCN(c2cc(N3CCCC3)c(F)cc2[N+](=O)[O-])CC1,-7%
Nc1ccc2cccc(O)c2c1,15%
CCOc1ccccc1NC(=O)C1CCN(C(=O)c2cccs2)CC1,-4%

# Ordered by count of non-hydrogen atoms (ascending): three of the compounds above
SMILES,VDR inh
O=c1[nH]c(NCc2ccccc2)nc2c1CCC2,-10%
O=C(NCc1ccccc1Cl)c1ccc2c(c1)OCO2,2%
CC(=O)N(C(C)=O)N1C(=O)C2C3c4ccccc4C(c4ccccc43)C2C1=O (centres undefined),35µM*

# Compounds shown so far with an aryl thioether with sulfur outside any ring, in the order listed:
SMILES,VDR inh
Cc1ccc(-n2ccnc2SCC(=O)O)c(C)c1,8%
CCOC(=O)CSc1nnc(CNC(=O)c2ccc(S(=O)(=O)N3CCOCC3)cc2)n1C,11%
COc1ccc(Oc2c(C)nc(SCC(=O)c3ccc(Cl)cc3)[nH]c2=O)cc1,-2%
CCC1CCCCN1C(=O)CSc1nc(N)c(NC(=O)c2ccco2)c(=O)[nH]1 (centres undefined),-3%
Cc1cccc(-n2nnnc2SCC(=O)c2cc(C)n(CC3CCCO3)c2C)c1 (centres undefined),3%
Cc1ccccc1C(=O)Oc1c(Sc2ccccc2)c(C)nn1C(C)(C)C,-6%
CC(C)c1ccc(NC(=O)CSc2nc(=O)[nH]c3c2CCCC3)cc1,?
CCOCCc1c(O)nc(SCC(=O)N2CCOCC2)[nH]c1=O,21%
COc1ccccc1N(CC(=O)NCCSc1ccccc1)S(C)(=O)=O,-5%
CSc1ncccc1C(=O)OCC(=O)N1CC(=O)Nc2ccccc21,-13%
CC(C)N(C(=O)CSc1nc(Cc2ccccc2)nc2ccccc12)C(C)C,-19%
Cc1cc(C)c(NC(=O)CSc2nc3ncc(Br)cc3[nH]2)c(C)c1,-8%
O=C(CN(C(=O)CSc1nc2ccccc2o1)c1ccccc1)NC1CCCCC1,3%

# Source: PubChem
